KCNQ2 block: KCNQ2 potassium channel inhibitors, primary screen, cell-based, CHO-K1, FluxOR thallium flux, B-score (AID 2156); 20 min; stronger effect = lower value; only compounds with negative scores are shown here; some inactives read as strong as hits; B-score at 10 µM; 310,000 compounds, 1.1% hits;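 active = fluorescence ratio B-score at most minus 3 library SDs, with starting brightness B-score within 2 library SDs, cut at about -5.5 in these data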
Target sequence (O88943 whole entry, looked up): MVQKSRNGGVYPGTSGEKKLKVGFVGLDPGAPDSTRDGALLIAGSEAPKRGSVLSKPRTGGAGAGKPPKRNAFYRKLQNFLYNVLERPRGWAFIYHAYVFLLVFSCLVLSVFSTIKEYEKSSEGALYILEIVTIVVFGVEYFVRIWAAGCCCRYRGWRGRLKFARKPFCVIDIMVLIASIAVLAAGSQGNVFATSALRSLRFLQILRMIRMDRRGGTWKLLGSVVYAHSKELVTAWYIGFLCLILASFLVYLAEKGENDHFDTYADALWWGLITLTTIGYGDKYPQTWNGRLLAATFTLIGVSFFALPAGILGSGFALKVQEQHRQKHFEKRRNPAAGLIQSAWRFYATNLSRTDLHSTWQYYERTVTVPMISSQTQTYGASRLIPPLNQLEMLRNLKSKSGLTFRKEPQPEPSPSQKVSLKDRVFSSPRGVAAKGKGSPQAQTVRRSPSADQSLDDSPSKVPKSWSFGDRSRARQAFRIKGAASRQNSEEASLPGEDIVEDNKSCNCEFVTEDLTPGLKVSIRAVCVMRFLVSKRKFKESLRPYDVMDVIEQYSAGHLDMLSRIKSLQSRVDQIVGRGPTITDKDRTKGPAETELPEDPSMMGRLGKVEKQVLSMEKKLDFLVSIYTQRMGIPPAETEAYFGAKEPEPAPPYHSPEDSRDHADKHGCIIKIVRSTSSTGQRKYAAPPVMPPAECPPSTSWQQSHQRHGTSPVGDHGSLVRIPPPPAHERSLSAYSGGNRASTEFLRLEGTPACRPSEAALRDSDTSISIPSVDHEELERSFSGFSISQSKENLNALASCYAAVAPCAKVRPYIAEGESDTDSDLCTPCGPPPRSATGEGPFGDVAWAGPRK
KCNQ2 block baseline: further read-out of KCNQ2 block, marked with its call; B-score; measured here: initial fluorescence intensity artifact check;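 brightness before thallium and not channel activity; 0 = typical well and far values either way flag optical interference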
Active calls of the source: *; i = inactive; & = joins results of further samples.

SMILES | KCNQ2 block | KCNQ2 block baseline
O=C(CC1(O)C(=O)Nc2ccccc21)c1ccc2c(c1)OCO2 (configuration not stated) | i | 0.8
CCCc1nc2c(sc3nc4c(cc32)COC(C)(C)C4)c(=O)o1 | i | 0.7
Cc1cccc(OCC(=O)NNS(=O)(=O)c2ccccc2F)c1 | i | -0.39
CCC(=O)N1CCc2cc(S(=O)(=O)NC(C(=O)NCc3ccc(C)cc3)C(C)C)ccc21 (configuration not stated) | i | 2.43
Cc1ncoc1C(=O)N1CCc2c([nH]c3ccccc23)C1C(C)(C)C (configuration not stated) | i | -0.91
CC(=O)N1CCN(Cc2nc3cc(NC(=O)c4ccccc4Cl)ccc3n2C)CC1 | i | 0.16
C=CCn1c(CNS(=O)(=O)c2ccc(Cl)cc2)n[nH]c1=S | i | 0.33
COc1c(C)cc(Br)cc1C(=O)Nc1ccccc1C | i | 0.43
CN(C)CCNC(=O)c1ccc(Cl)s1 | i | -0.32
COC(=O)/C=c1/sc2nc3ccccc3n2c1=O | i | 0.52
O=S(=O)(NCc1ccccc1)c1ccc(Cl)c(S(=O)(=O)NCc2ccccc2)c1 | i | -0.04
Cc1ccc(OCC(=O)N2CCc3ccccc3C2)c(C)c1 | -7.82* | -2.31*
CCC(Sc1nc2ccccc2s1)C(=O)Nc1nnc(C)s1 (configuration not stated) | i | -0.35
C/C(=N/O)c1cccc(N2Cc3ccccc3C2)c1 | i | -1.44
CCOC(=O)c1c(N2C(=O)C=CC2=O)sc(C)c1C | i | -0.03
Cc1c(CC(=O)N[C@H](C(=O)O)C(C)C)c(=O)oc2cc3c(cc12)CCC(C)(C)O3 | i | 1.57

The final 6 entries of the section above lead into the next.
SMILES | KCNQ2 block | KCNQ2 block baseline
O=S(=O)(NCc1ccccc1)c1ccc(Cl)c(S(=O)(=O)NCc2ccccc2)c1 | i | -0.04
Cc1ccc(OCC(=O)N2CCc3ccccc3C2)c(C)c1 | -7.82* | -2.31*
CCC(Sc1nc2ccccc2s1)C(=O)Nc1nnc(C)s1 (configuration not stated) | i | -0.35
C/C(=N/O)c1cccc(N2Cc3ccccc3C2)c1 | i | -1.44
CCOC(=O)c1c(N2C(=O)C=CC2=O)sc(C)c1C | i | -0.03
Cc1c(CC(=O)N[C@H](C(=O)O)C(C)C)c(=O)oc2cc3c(cc12)CCC(C)(C)O3 | i | 1.57
O=C(NCCCN1CCOCC1)c1cccc(S(=O)(=O)NCc2ccccc2)c1 | i | 1.47
Cc1ccc(OCc2nc(-c3ccccc3)no2)c(C)c1 | i | -0.09
COc1ccc(Nc2oc(COc3ccccc3F)nc2C#N)cc1 | i | -0.02
Cc1cc(C)c(C)c(OCCn2ccnc2)c1 | i | 2.1
Cc1cccc(S(=O)(=O)Nc2ccc(-c3cn4ccccc4n3)cc2)c1 | i | -1.92
CCC(CC)C(=O)c1c[nH]c(C(=O)NCc2cccnc2)c1 | i | 2.48
O=C(c1cccc([N+](=O)[O-])c1)N1CCN(c2ccccn2)CC1 | i | 0.12
CC1Cc2cc(/C(O)=C3/C(=O)C(=O)N(CCN4CCOCC4)C3c3ccc([N+](=O)[O-])cc3)ccc2O1 (configuration not stated) | i | 1.96
CCOC(=O)c1cc2occc2n1CC(=O)N1CCN(C(=O)c2ccco2)CC1 | i | -0.1
O=C(CCc1ccccc1)N1CCN(c2ccc(F)cc2)CC1 | i | 0.35
CCCCCCOc1ccc(C(CC(N)=O)C(=O)O)cc1 (configuration not stated) | i | -1.12
CCC1CCCCN1CCCNC(=O)c1ccc2c(c1)N(Cc1c(F)cccc1Cl)C(=O)CS2 (configuration not stated) | i | -0.05
Cc1ccc(CNc2ncnc(N)c2[N+](=O)[O-])cc1 | i | 1.03
COc1ccc(NC(=O)CCN2CCCCC2)cc1 | i | -2.07
O=C(NCSc1ccnc(SCNC(=O)c2ccc(F)cc2)n1)c1ccc(F)cc1 | i | 0.99
COc1ccccc1N1C(=O)S/C(=C\c2cc(C)n(C)c2C)C1=O | i | 1.46
CCOc1ccc(NC(=O)c2nn(-c3ccc(OC)cc3OC)c(=O)c3ccccc23)cc1 | i | 0.71
COC(=O)c1c(C)oc(C)c1S(=O)(=O)N1CCCC1 | i | 0.22
O=C(COc1cccc(NC(=O)c2ccco2)c1)c1ccccc1 | i | -0.64
O=C(CSCc1ccc(Cl)cc1)NCCSCc1ccco1 | -6.39* | -2.55*
N#C/C(=C\c1ccccc1)C(=O)NCc1ccc(F)cc1 | i | 0.27
O=C(O)CCCC(=O)Nc1ccc(Sc2ccc([N+](=O)[O-])cc2)cc1 | i | -1.1
C=CCn1c(Cc2ccccc2)n[nH]c1=S | i | 0.74
CCNC(=S)NCc1ccco1 | i | -0.46
CC(=O)N1CCN(C2c3cccc4cccc(c34)C2NS(=O)(=O)c2ccccc2)CC1 (configuration not stated) | i | -0.15
O=C(Nc1ccc2nc3ccccc3nc2c1)c1ccc(Br)cc1 | i | 8.12
Cc1cccnc1CCNC(=O)CC1C(=O)NCCN1CC1CCCCC1 (configuration not stated) | i | 1.17
O=C(O)c1ccc(S(=O)(=O)N(CCc2ccccc2)Cc2ccc(Cl)cc2)cc1 | i | 0.24
COc1ccc(NC(=O)c2ccc3ccccc3c2OC)cc1 | i | 0.02
O=C(NCc1ccccn1)C1CC(c2ccccc2Cl)=NO1 (configuration not stated) | i | 0.6
NC(=O)c1ncn([C@@H]2O[C@H](CO)[C@@H](O)[C@H]2O)c1O | i | 0.59
CC(C)=NNC(=O)CN1C(=O)NC2NC(=O)NC21 (configuration not stated) | i | -0.94
Cc1ccc(C(=O)NC(=S)Nc2ccc(CN3CCCCC3)cc2)c(C)c1 | i | -0.02
Cc1ccc(CN2CCC(N3CCC(C(=O)NCC4CCCO4)CC3)CC2)o1 (configuration not stated) | i | 2.3
COc1ccc(C2N=C(N)N=C(N)N2c2ccc(C)cc2)cc1 (configuration not stated) | i | -0.11
O=c1c2ccccc2nc(SCc2ccccc2F)n1C1CCCC1 | i | 0.03
O=C(CCc1[nH]c2ccccc2c1Sc1ccccc1)NCCO | i | 1.19
CC(=O)N1CC2(c3ccccc3)CN(C(C)=O)CC(c3ccccc3)(C1)C2=O | i | 0.74
COc1ccc(OC)c(N(CC(=O)NCc2cccnc2)S(C)(=O)=O)c1 | i | -0.01
COc1ccc(C(CNC(=O)c2sccc2C)N2CCOCC2)cc1 (configuration not stated) | i | 0.21
CCOC(=O)c1cc(-c2ccc(OC)cc2F)nc2c1c(C)nn2CCC#N | i | 1.63
CCOc1ccccc1NC(=O)Cn1ncc2ccc([N+](=O)[O-])cc21 | i | -0.95
CCn1cc(C(=O)NCC(OC)OC)c(=O)c2cc(S(=O)(=O)N3CCOCC3)ccc21 | i | -0.03
Cc1ccc(C(C(=O)NCc2ccccc2)N(C(=O)c2ccccn2)c2ccccc2)o1 (configuration not stated) | i | -0.22
COC(=O)[C@@H]1CC[C@H](C)[C@@H](c2ccc(C)cc2)N1C(=O)c1ccc(/C=N/O[C@@H](C)CN2CCCCc3nc(C)c(C)cc32)cc1 | i | -1.01
COc1ccc(CCNC(=O)c2ccc(COc3ccccc3OC)o2)cc1 | i | 3.28
O=C1CSCN1c1ccc(Cl)cc1 | i | -0.04
Cc1cc(C(=O)CSc2n[nH]c(N)n2)c(C)n1C1CC1 | i | -0.08
Cc1ccc(C(=O)/C=C/Nc2ccc([N+](=O)[O-])cc2Br)cc1 | i | -1.45
Cc1noc(C)c1S(=O)(=O)N(CC(=O)O)c1ccc2c(c1)OCO2 | i | 0.03
O=C1CN(S(=O)(=O)c2ccc(Cl)cc2C(F)(F)F)CCN1 | i | 0.01
COc1ccc(/C=N/n2cncn2)cc1CSc1ccccn1 | i | -0.97
CCOC(=O)CNC(=O)CSc1ncnc2c1nnn2-c1ccc(F)cc1 | i | -0.31
COc1ccc(NCc2nnc(SCC(=O)N3CCCc4ccccc43)n2C)cc1 | i | 3.15
CCOC(=O)c1c(NC(=S)N2CCCCC2)sc2c1CCN(C(=O)OCC)C2 | i | 0.48
COc1ccccc1NC(=O)CCSc1ccc(C)cc1 | i | 1.78

Additional results follow:
SMILES | KCNQ2 block | KCNQ2 block baseline
CC(c1ccccc1)n1c(-c2ccc(Cl)cc2)n[nH]c1=S (configuration not stated) | i | 1.16
CN(C)S(=O)(=O)N1CCc2ccccc2C1 | i | 1.46
CC(=O)C1=NN(c2ccccc2)C(c2ccc3c(c2)OCO3)N1c1ccccc1 (configuration not stated) | i | 1.11
CCc1ccc(S(=O)(=O)c2nnn3c2nc(N2CCOCC2)c2ccccc23)cc1 | i | 0.62
O=C(CC1C(=O)NCCN1Cc1ccoc1)NCCCn1ncc2ccccc21 (configuration not stated) | i | 3.48
Cc1ccc2[nH]c3c(c2c1)CN(C(=O)CN1CCCCC1)CC3 | i | -0.13
COC(=O)[C@@H]1C[C@H]2CC[C@H](O)C[C@H]2N1Cc1ccccc1OS(=O)(=O)c1ccc(C)cc1 | i | 0.62
COc1ccc(CCNC(=O)[C@H](C)N2C(=O)N3CCc4c([nH]c5ccccc45)[C@@]3(C)C2=O)cc1 | i | 0.16
Cc1ccc([N+](=O)[O-])cc1NC(=O)/C=C/C(=O)O | i | -0.22
Cc1ccc(C2=CC(c3ccccc3)n3ncnc3N2)cc1 (configuration not stated) | i | -1.01
COc1ccc(C2C(C#N)=C(N)Oc3n[nH]c(C)c32)cc1CN1CCN(c2ccc(F)cc2)CC1 (configuration not stated) | i | -0.71
CO[C@H]1C=CO[C@@]2(C)Oc3c(C)c(O)c4c(O)c(c(C=NN5CCN(C6CCCC6)CC5)c(O)c4c3C2=O)NC(=O)C(C)=CC=C[C@H](C)[C@H](O)[C@@H](C)[C@@H](O)[C@@H](C)[C@H](OC(C)=O)[C@@H]1C | i | -0.95
COc1ccc(COCC(O)CN2CCOCC2)cc1OC (configuration not stated) | i | -0.35
CCOC(=O)c1c(NC(=O)C(=O)N/N=C/c2ccc(OCC)cc2)sc2c1CCCCC2 | i | 0.01
CCOc1ccccc1NC(=O)CN1CCC(C(=O)c2ccc(F)cc2)CC1 | i | -1.11
Cc1cccc(NC(=O)N2C3CCCC2CC(NC(=O)C2CC2)C3)c1 (configuration not stated) | i | -0.38
CCn1nc(C)c(NC(=O)c2cnn3c(C(F)F)cc(-c4ccccc4)nc23)c1C | i | 1.78
O=C(Cn1ncc2c(=O)oc3ccccc3c21)N1CCC(N2CCCCC2)CC1 | i | 0.27
CC(C)Cc1c(O)nc(SCC(=O)N2CCCCCC2)[nH]c1=O | i | 0.04
COc1ccc(C2=NN(C(=O)CSc3nnc(C)n3C)C(c3ccco3)C2)cc1 (configuration not stated) | i | 1.68
COc1ccc(-n2cnc3cc(NCc4ccco4)ccc32)cc1 | i | 0.33
COc1ccc(/C(C)=N/NC(=O)c2ccccc2OCc2ccccc2)c(OC)c1 | i | -2.81
CCCCCOc1ccc(C(=O)NC(C(=O)O)C(C)C)cc1 (configuration not stated) | i | -0.58
CN(C(=O)COC(=O)CCC(=O)c1ccccc1)c1c(N)n(Cc2ccccc2)c(=O)[nH]c1=O | i | -0.99

Overlap with the part before: 4 entries, then new ones.
SMILES | KCNQ2 block | KCNQ2 block baseline
COc1ccc(-n2cnc3cc(NCc4ccco4)ccc32)cc1 | i | 0.33
COc1ccc(/C(C)=N/NC(=O)c2ccccc2OCc2ccccc2)c(OC)c1 | i | -2.81
CCCCCOc1ccc(C(=O)NC(C(=O)O)C(C)C)cc1 (configuration not stated) | i | -0.58
CN(C(=O)COC(=O)CCC(=O)c1ccccc1)c1c(N)n(Cc2ccccc2)c(=O)[nH]c1=O | i | -0.99
N#CCSc1nnc(-c2ccccc2O)n1CCc1ccccc1 | i | -0.05
Cc1cc(C)c(C#N)c(SCC(=O)c2ccccc2)n1 | i | 0.27
COc1ccc(CN=Nc2cc(C)nc(NS(=O)(=O)c3ccccc3Cl)n2)cc1 | i | 0.86
O=C(O)Cc1csc(-c2cccc(Oc3ccccc3)c2)n1 | i | 0.81&-0.17
c1ccc(CN2CCN(c3nc(NCc4ccco4)c4ccccc4n3)CC2)cc1 | i | -1.7
CCCCOCCCN1CC(=O)N2C(C)c3[nH]c4ccccc4c3C[C@H]2C1=O (some centres not stated) | i | 2.86
CCC(=O)NC(c1cccs1)c1cc([N+](=O)[O-])c2cccnc2c1O (configuration not stated) | i | 3.3
c1ccc2c(c1)C(=NC1CCCCC1)NC2=NC1CCCCC1 | i | -0.79
COc1nc(NCCO)nc(Nc2cc(Cl)ccc2OC)n1 | i | 0.49
COc1cccc(N2CCN(C(=O)c3cccnc3)CC2)c1 | i | -1.01
CCOC(=O)C1(CCc2ccccc2)CCN(Cc2cnc(N(C)C)s2)CC1 | i | 0.67
COC(=O)c1ccc2c(c1)NC(=O)C(N1CCCCC1)S2 (configuration not stated) | i | -0.02
Cc1ccc(OCC(=O)N/N=C\c2c(C)n(C)c3ccccc23)c([N+](=O)[O-])c1 | i | -2.22
CCOc1ccc(CN(C)CC(=O)Nc2cccc(S(=O)(=O)N(C)c3ccccc3)c2)cc1 | i | 0.58
CC(C)(C)c1cc(CNC2CS(=O)(=O)C[C@@H]2O)cc(C(C)(C)C)c1O (some centres not stated) | i | 0.22
COC(=O)/C(=C\Nc1ccc(Cl)cc1Cl)NC(=O)c1ccccc1 | i | -0.01
COc1cc(/C=C2\SC(=S)N(CCC(=O)NC3CCCC3)C2=O)cc(OC)c1OC | i | -0.19
Oc1ccc(N2CCN(CC(O)c3ccccc3)CC2)cc1 (configuration not stated) | i | -1.2
O=C(CSC(=S)N1CCCC1)NCC(=O)Nc1ccccc1Br | i | 2.31
Cc1cccc(OC(C)C(=O)Nc2ccc(S(=O)(=O)N3CCCC3)cc2)c1 (configuration not stated) | i | -1.44
O=C(Nc1ccc(F)c(Cl)c1)c1cc(-c2ccco2)on1 | i | 0.33

The list is partial; count on the stated rates, not on these rows.
